Assay outcomes (PubChem)
PMP22 txn: Cell-based coincidence reporter assay to measure PMP22 gene transcription in S16 Pmp22-F2sN cells - Primary screen; S16 Pmp22-F2sN Schwann cells (luciferase reporters placed in the Pmp22 gene), FLuc/NLuc coincidence luminescence, 24 h; Potency, µM (doses to about 57.5 µM), for inactives: at the top dose activity change, negative = inhibition, usual class: inhibitors; 43,000 compounds, 2% hits; active = clear falling dose curves in both reporters; inconclusive = both reporters move, but less clearly or upward; inactive = either reporter flat; the % is the NLuc reporter signal; also: % is scaled to controls: 0 for no effect and ±100 for the full control effect; some results filed as inactive show a strong effect at the top dose
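Luminescent read-out of sequential FLuc and NLuc signals from a reporter embedded in the Pmp22 3' UTR of S16 Schwann cells, taken after 24 h compound exposure at 37C; compounds reducing both signals score as inhibitors of expression.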
HTT prom inh: Primary qHTS for Identification of Small Molecule Inhibitors of Huntingtin Promoter Activity; HEK293 HTT promoter firefly luciferase reporter (activity 0% = vehicle and -100% = no light), 24 h; Potency, µM (top dose mostly 57.5 µM), for inactives: at the top dose activity change, negative = inhibition, hits mostly inhibitors; 48,000 compounds, 0.93% hits; AID 1508623, 2021; active = well fitted inhibition curve with a large enough effect; inconclusive = small, poorly fitted or top-dose-only effect; inactive = no such curve, though single readings can be large or run the other way; also: nearly all actives have a fitted effect of over 50% in size
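Luminescence was read after Dual-Glo reagent and a 10 min room-temperature incubation. Values were normalized to vehicle (0% activity) and zero RLU (-100% activity). Reporter HEK293 cells had been exposed to compounds (up to 57.5 uM final) for 24 h.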
Active calls of the source: *; [ ] = another dose, or the depositor's remark. Potency is read from the fitted curve at half-maximal effect.

Results for Cc1cc(C)c(NC(=O)CSc2ncc(S(=O)(=O)c3ccc(C(C)(C)C)cc3)c(=O)[nH]2)c(C)c1 ?
PMP22 txn: -10%; HTT prom inh: -12%

How did COc1cccc(CN2C(=O)C3(SCC(=O)N3c3ccc(C)c(Cl)c3)c3ccccc32)c1 (stereo not drawn) do in these assays?
PMP22 txn: inconclusive; HTT prom inh: -33%

How did Cc1cccc(NC(=O)CN2C(=O)COc3ccc(S(=O)(=O)N4CCC(C)CC4)cc32)c1C do in these assays?
PMP22 txn: 0%; HTT prom inh: -13%

What do the screens show for `CC(C)(C)OC(=O)N1CCC(c2nnc(SCc3ccccc3F)o2)CC1`?
PMP22 txn: inconclusive; HTT prom inh: -33%

How did COc1ccc(NC(=O)COCc2cc(-c3ccco3)on2)cc1Cl do in these assays?
PMP22 txn: -26%; HTT prom inh: -12%

What do the screens show for `CC(=O)Nc1cccc(NC(=O)CSc2nccn2Cc2ccccc2)c1`?
PMP22 txn: inconclusive; HTT prom inh: inconclusive

Results for Cc1ccc2oc(C(=O)Nc3sc4c(c3C(=O)NCc3cccnc3)CCCC4)cc(=O)c2c1 ?
PMP22 txn: -13%; HTT prom inh: 9%[11.5 µM]

How did CCOc1ccc(NS(=O)(=O)c2ccc3[nH]cc(C(=O)NCC4CCCO4)c(=O)c3c2)cc1 (stereo not drawn) do in these assays?
PMP22 txn: -2%; HTT prom inh: 17%

What do the screens show for `CSc1ccc(C2c3c(-c4ccccc4O)n[nH]c3C(=O)N2Cc2ccncc2)cc1` (stereo not drawn)?
PMP22 txn: inconclusive; HTT prom inh: inconclusive

Results for CCNC(=O)CC1C(=O)N(c2cccc(OC)c2)C(=O)N1Cc1ccc(OC)c(OC)c1 (stereo not drawn) ?
PMP22 txn: 0%; HTT prom inh: -11%

How did COc1ccc(-c2nc(SCC(=O)Nc3ccc4c(c3)OCCO4)c(-c3ccc(F)cc3)[nH]2)cc1 do in these assays?
PMP22 txn: inconclusive; HTT prom inh: inconclusive

What do the screens show for `CC1CC2C3CCC4=CC(=O)C=C[C@]4(C)[C@@]3(F)[C@@H](O)C[C@]2(C)[C@@]1(O)C(=O)CO` (stereo partly drawn)?
HTT prom inh: -7%

What do the screens show for `COC(=O)c1sc2cccc(F)c2c1S(=O)(=O)N1CCN(c2cccc(OC)c2)CC1`?
PMP22 txn: -17%; HTT prom inh: -33%

How did CCc1nn(CCCC(=O)NCc2ccccc2Br)c(=O)c2cc3occc3n12 do in these assays?
PMP22 txn: -10%; HTT prom inh: -21%

What do the screens show for `COc1ccc(OCC(=O)OCc2cc(=O)n3nc(C4CC4)sc3n2)cc1`?
PMP22 txn: inconclusive; HTT prom inh: -27%

How did O=c1oc2cc(O)ccc2s1 do in these assays?
HTT prom inh: -1%

Results for CCOc1ccccc1NC(=O)CN1CCN(S(=O)(=O)c2ccc(Br)cc2)CC1 ?
PMP22 txn: -10%; HTT prom inh: -13%

How did Cc1cc(C)cc(NC(=O)C2CCN(S(=O)(=O)c3cn(C)cn3)CC2)c1 do in these assays?
PMP22 txn: inconclusive; HTT prom inh: -1%

Results for O=C(Cc1ccccc1)Nc1sc2c(c1C(=O)Nc1ccc(Br)cc1)CCCC2 ?
PMP22 txn: -22%; HTT prom inh: -31%

How did COc1cccc(C2Nc3ccccc3-c3nnc(SCc4ccccc4)nc3O2)c1OC (stereo not drawn) do in these assays?
PMP22 txn: 5%; HTT prom inh: 3%

Results for CSc1ccc(CCNc2ncnc3onc(-c4ccc(Cl)cc4)c23)cc1 ?
PMP22 txn: inconclusive; HTT prom inh: 18µM*

Results for c1ccc(CCNc2nc(-c3ccccc3)cs2)cc1 ?
HTT prom inh: 31%[activator]

Results for O=S1(=O)c2ccccc2N(Cc2ccccc2)c2ccccc21 ?
PMP22 txn: -3%; HTT prom inh: -3%

Results for COc1ccc(OC)c(NC(=O)N2CCC(CN3CCCCC3)CC2)c1 ?
PMP22 txn: inconclusive; HTT prom inh: 2%

Results for Cc1cc(Nc2ccc(Br)cc2)n2nc(-c3ccccc3C)nc2n1 ?
PMP22 txn: inconclusive; HTT prom inh: -8%

What do the screens show for `CCN1CCc2c(sc(NC(=O)CSc3ccccc3)c2-c2nc3ccccc3s2)C1`?
PMP22 txn: inconclusive; HTT prom inh: -28%

What do the screens show for `CN(C)c1ccc(C(CNC(=O)c2ccccc2Cl)N2CCc3ccccc32)cc1` (stereo not drawn)?
PMP22 txn: inconclusive; HTT prom inh: 17%

Results for O=S(=O)(NCC(c1cccs1)S(=O)(=O)c1ccccc1)c1ccc(F)cc1 (stereo not drawn) ?
PMP22 txn: inconclusive; HTT prom inh: -21%

Results for CCOC(=O)c1cccc(NC(=O)c2cc3c(-c4cccc(OC)c4)nn(C)c3s2)c1 ?
PMP22 txn: -9%; HTT prom inh: -27%

Results for CCC(=O)c1c(O)cc(O)cc1O ?
HTT prom inh: 3%

Results for FC(F)(F)c1cccc(-n2cc(-c3ccccc3)c3c(N4CCCCC4)ncnc32)c1 ?
PMP22 txn: -7%; HTT prom inh: -9%

What do the screens show for `COc1ccccc1N1CCN(c2cc(C)nc3nc(-c4ccc(C)cc4)nn23)CC1`?
PMP22 txn: -3%; HTT prom inh: -9%

How did Cc1ccc(NC(=O)C2CCN(C(=O)c3cnn(-c4ccccc4)c3-n3cccc3)CC2)cc1 do in these assays?
PMP22 txn: 1%; HTT prom inh: inconclusive

Results for COc1ccc2nc3oc(C(=O)N4CCN(c5cc(C)ccc5C)CC4)cc3cc2c1 ?
PMP22 txn: 13%; HTT prom inh: 44%[activator]

How did O=[N+]([O-])c1ccc(C(c2sc3nc(-c4ccco4)nn3c2O)N2CCC3(CC2)OCCO3)cc1 (stereo not drawn) do in these assays?
PMP22 txn: -4%; HTT prom inh: -14%

What do the screens show for `CCOc1ccccc1CNC(=O)c1cn(-c2ccc(OC)cc2)c(=O)c2ccccc12`?
PMP22 txn: inconclusive; HTT prom inh: -17%

How did CC(NC(=O)c1ccc2c(c1)CCN2S(=O)(=O)c1ccccc1)c1ccccc1 (stereo not drawn) do in these assays?
PMP22 txn: inconclusive; HTT prom inh: inconclusive

How did O=S(=O)(c1ccccc1)N1CCC(c2ccncc2)CC1 do in these assays?
PMP22 txn: inconclusive; HTT prom inh: inconclusive

What do the screens show for `COc1cccc(NC(=O)C2=C(C)C(=O)OC23CCN(C(C)=O)CC3)c1`?
PMP22 txn: -1%; HTT prom inh: -1%

Results for CC(=O)OCC1=C(C(=O)O)N2C(=O)[C@@H](NC(=O)Cc3cccs3)[C@H]2SC1 ?
HTT prom inh: 4%

How did Cc1ccc(N(CC(=O)NC(C)c2ccccc2)S(=O)(=O)c2c(C)noc2C)cc1 (stereo not drawn) do in these assays?
PMP22 txn: inconclusive; HTT prom inh: -23%

What do the screens show for `O=C1Nc2c(c(=O)[nH]c(=O)n2-c2ccccc2)C1(NS(=O)(=O)c1ccc(Cl)cc1)C(F)(F)F` (stereo not drawn)?
PMP22 txn: 1%; HTT prom inh: -11%

Results for CCOc1ccc2oc(=O)cc(CN3CCN(c4ccc(OC)cc4)CC3)c2c1 ?
PMP22 txn: inconclusive; HTT prom inh: -9%

What do the screens show for `COc1ccc(-c2nc3sc(CCNC(=O)c4ccco4)c(C)n3n2)cc1`?
PMP22 txn: -14%; HTT prom inh: 34%[activator]

Results for CN(Cc1ccccc1)c1nc2c(S(=O)(=O)c3ccccc3)nnn2c2ccsc12 ?
PMP22 txn: -30%; HTT prom inh: -7%

How did COc1ccc(CCNC(=O)Cn2c(=O)n(-c3ccc(OC)c(OC)c3)c(=O)c3ccccc32)cc1OC do in these assays?
PMP22 txn: 1%; HTT prom inh: -15%

What do the screens show for `COc1ccc(NC(=O)C2CCN(c3ccc(Sc4ccc(C)cc4)nn3)CC2)c(OC)c1`?
PMP22 txn: -27%; HTT prom inh: 0%

How did CC(C)c1cnc2c(c1SCC(=O)Nc1cccc([N+](=O)[O-])c1)c(=O)n(C)c(=O)n2C do in these assays?
PMP22 txn: inconclusive; HTT prom inh: -26%

Results for COc1cccc(NC(=O)C2CCN(c3nn4cc(-c5ccc(F)cc5)nc4s3)CC2)c1 ?
PMP22 txn: -2%; HTT prom inh: -27%

How did O=C(Nc1ccc(C(F)(F)F)cc1)C(Cc1ccccc1)n1cccc1 (stereo not drawn) do in these assays?
PMP22 txn: inconclusive; HTT prom inh: inconclusive

What do the screens show for `O=C(Nc1ccc(C(=O)N2CCN(c3ccc(Cl)cc3)CC2)cc1)c1nsc2ccccc12`?
PMP22 txn: inconclusive; HTT prom inh: inconclusive

How did Cc1cccc(OCC(=O)Nc2nnc(S(=O)(=O)N3CCc4ccccc43)s2)c1 do in these assays?
PMP22 txn: -5%; HTT prom inh: -15%

Results for CCCCOc1ccc(CNC(=O)C2CCCN(c3nnc(-n4c(C)ccc4C)s3)C2)cc1 (stereo not drawn) ?
PMP22 txn: inconclusive; HTT prom inh: -30%

Results for CCOc1ccccc1CN1CCc2nc(N3CCN(C)CC3)ncc2C1 ?
PMP22 txn: -14%; HTT prom inh: -13%

Results for CC(C)n1c(=N)c(C(=O)NCc2cccnc2)cc2c(=O)n3ccccc3nc21 ?
PMP22 txn: inconclusive; HTT prom inh: -13%

Results for Cc1cccc(N2CCN(C3(c4ccccc4)C(=O)c4ccccc4C3=O)CC2)c1C ?
PMP22 txn: 12%; HTT prom inh: 5%

What do the screens show for `O=C(CSc1nc2ccccc2nc1Cc1ccc(Cl)cc1)N1CCN(c2ccccc2)CC1`?
PMP22 txn: 4%; HTT prom inh: -2%

Results for Fc1ccc(-c2ccc(CNCCSc3nnnn3-c3ccccc3)o2)cc1Cl ?
PMP22 txn: 12%; HTT prom inh: -29%

What do the screens show for `CSc1ccc(CCNC(=O)Cn2ncc3c(=O)oc4ccccc4c32)cc1`?
PMP22 txn: -11%; HTT prom inh: -13%

What do the screens show for `COC(=O)C1=C(C)N(C(C)C)C(=O)C1(NC(=O)c1ccc(C(C)(C)C)cc1)C(F)(F)F` (stereo not drawn)?
PMP22 txn: 1%; HTT prom inh: -12%

How did CC1CCC(NC(=O)c2ccc3c(c2)N(Cc2cccc(Cl)c2)C(=O)c2ccccc2S3=O)CC1 (stereo not drawn) do in these assays?
PMP22 txn: -5%; HTT prom inh: 4%

How did COc1ccc(-c2nc3n(n2)C(c2cccc(C)c2)C(C(N)=O)=C(C)N3)cc1OC (stereo not drawn) do in these assays?
PMP22 txn: 11%; HTT prom inh: 0%

How did COC(=O)c1ccc(C(=O)OC)c(NC(=O)c2ccc(-c3ccccc3)s2)c1 do in these assays?
PMP22 txn: -2%; HTT prom inh: 11%

What do the screens show for `O=C(CS(=O)(=O)c1cccc2nsnc12)NCc1ccccc1Cl`?
PMP22 txn: -6%; HTT prom inh: -1%

Results for CCOC(=O)C1CCN(c2c(C(=O)c3ccc(C)cc3)cnc3ccc(F)cc23)CC1 ?
PMP22 txn: inconclusive; HTT prom inh: -12%

Results for CC(C)OCCCNC(=O)CSc1c2c(nc3ccc(Cl)cc13)CCCC2 ?
PMP22 txn: 12µM*; HTT prom inh: inconclusive

How did CC1=C(c2ccc(C(C)C)cc2)S(=O)(=O)NC1=NCc1ccc(Cl)cc1 do in these assays?
PMP22 txn: -5%; HTT prom inh: -25%

As a short view, part of the list above:
Results for CC(C)n1c(=N)c(C(=O)NCc2cccnc2)cc2c(=O)n3ccccc3nc21 ?
PMP22 txn: inconclusive; HTT prom inh: -13%

Results for Cc1cccc(N2CCN(C3(c4ccccc4)C(=O)c4ccccc4C3=O)CC2)c1C ?
PMP22 txn: 12%; HTT prom inh: 5%

What do the screens show for `O=C(CSc1nc2ccccc2nc1Cc1ccc(Cl)cc1)N1CCN(c2ccccc2)CC1`?
PMP22 txn: 4%; HTT prom inh: -2%

Results for Fc1ccc(-c2ccc(CNCCSc3nnnn3-c3ccccc3)o2)cc1Cl ?
PMP22 txn: 12%; HTT prom inh: -29%

What do the screens show for `CSc1ccc(CCNC(=O)Cn2ncc3c(=O)oc4ccccc4c32)cc1`?
PMP22 txn: -11%; HTT prom inh: -13%

What do the screens show for `COC(=O)C1=C(C)N(C(C)C)C(=O)C1(NC(=O)c1ccc(C(C)(C)C)cc1)C(F)(F)F` (stereo not drawn)?
PMP22 txn: 1%; HTT prom inh: -12%

How did CC1CCC(NC(=O)c2ccc3c(c2)N(Cc2cccc(Cl)c2)C(=O)c2ccccc2S3=O)CC1 (stereo not drawn) do in these assays?
PMP22 txn: -5%; HTT prom inh: 4%

How did COc1ccc(-c2nc3n(n2)C(c2cccc(C)c2)C(C(N)=O)=C(C)N3)cc1OC (stereo not drawn) do in these assays?
PMP22 txn: 11%; HTT prom inh: 0%

How did COC(=O)c1ccc(C(=O)OC)c(NC(=O)c2ccc(-c3ccccc3)s2)c1 do in these assays?
PMP22 txn: -2%; HTT prom inh: 11%

What do the screens show for `O=C(CS(=O)(=O)c1cccc2nsnc12)NCc1ccccc1Cl`?
PMP22 txn: -6%; HTT prom inh: -1%

Results for CCOC(=O)C1CCN(c2c(C(=O)c3ccc(C)cc3)cnc3ccc(F)cc23)CC1 ?
PMP22 txn: inconclusive; HTT prom inh: -12%
